RE007 growth inh: less growth of the S. pombe RE007 Vpr strain; S. pombe RE007 Vpr strain, BacTiter-Glo ATP luminescence, 24 h; control for the full effect not named in the record; Potency, µM (top dose mostly 92.2 µM), without a hit: top-dose activity change, negative = less growth; 360,000 compounds, 0.21% hits; active = well fitted falling curve with a large enough effect; inconclusive = small, poorly fitted or top-dose-only effect; inactive = no such curve, though single readings can be large or run the other way;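 further: on the % scale 0 is the no-effect control and ±100 the full control effect; nearly all actives have a fitted effect of over 50% in size; the assay follows cell death caused by Vpr and the record does not say whether a fall means rescue or toxicity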
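Fission yeast RE007 carrying one integrated HIV-1 vpr copy, seeded at OD 0.01 in PMG+AL medium with 23 nL pinned compound. Grown 24 h at 30 degrees; viability read by BacTiter-Glo luminescence after 5 min.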
2A StopGo: FMDV 2A StopGo reporter, luciferase signal; 410,000 compounds, 1.2% hits; human cells with a luciferase reporter of 2A StopGo recoding; control for the full effect not named in the record; Potency, µM (highest dose often 57.9 µM), inactives show at the top dose signal change, negative = less light; active = well fitted falling curve with a large enough effect; inconclusive = small, poorly fitted or top-dose-only effect; inactive = no such curve, though single readings can be large or run the other way; tested in HEK293T cells; further: on the % scale 0 is the no-effect control and ±100 the full control effect; nearly all actives have a fitted effect of over 45% in size; luciferase light after 4 h
SARS PLpro yeast: inhibitors of SARS-CoV papain-like protease in yeast; 330,000 compounds, 0.19% hits; AID 485353; S. cerevisiae expressing SARS-CoV PLpro, growth rescue; control for the full effect not named in the record; Potency, µM (series often up to 32.9 µM), without a hit: top-dose activity, positive = growth rescue; active means well fitted rising curve with a large enough effect; inconclusive means small, poorly fitted or top-dose-only effect; inactive means no such curve, though single readings can be large or run the other way; further: 0% is about no effect; nearly all actives have a fitted effect of over 55% in size; growth read by luminescence after 48 h
* hit, by the source's call; ? = inconclusive; [ ] = remark or other dose. Potency means the concentration at half of the fitted maximal effect. A portion of the library. The share of hits here may be higher or lower than overall.

molecule	2A StopGo	SARS PLpro yeast	RE007 growth inh
CCCCCCSc1cc(-c2nc3ccc(Cl)cn3c2NC2CCCCC2)ccc1OC	1.1%	-0.9%	4.6%
Cc1ccccc1C(=O)N1CCC(C(=O)OCC(=O)Nc2cccc([N+](=O)[O-])c2C)CC1	-12.1%	7.8%	5.8%
COc1cc2cc(CCCO)oc(=O)c2cc1OC	60.8%[activator]	1.9%	-14.2%
C1=C(c2sc3ccccc3c2-c2ccc(OCCN3CCOCC3)cc2)CCCC1	-24.0%	8.0%	-9.4%
O=S(=O)(NNc1ncc(C(F)(F)F)cc1Cl)c1ccc(F)cc1F	-6.1%	7.3%	1.3%
CC[C@]12c3[nH]c4cc(-c5ccco5)ccc4c3CCN1C(=O)[C@@H](CC(=O)NCCCOC)C[C@@H]2C(=O)N1CCN(C(=O)C2CC2)CC1	-14.4%	0.3%	10.1%
O=C(CN1C(=O)NC2(CCCCCCC2)C1=O)Nc1ccc(Br)cc1	?	4.1%	-17.8%
CN(Cc1ccccc1)C(=O)CN1C(=O)NC2(CCCC2)C1=O	12.3%	2.2%	-9.3%
Nc1ccncc1N	?	-0.4%	22.7%
CC[C@@]1(C(=O)OC)N[C@H](CN(C)C(=O)COC)[C@@H]2C(=O)N(C)C(=O)[C@@H]21	-10.3%	-14.1%	-4.7%
Cc1cc(C(=O)COC(=O)C2=NNC(=O)CC2)c(C)n1CCc1ccccc1	5.2%	0.6%	7.7%
CC(CNC(=O)COc1ccc2c(c1)OCO2)c1ccccc1 (stereo not given)	7.6%	-7.1%	1.8%
C=CC(C)C(C(=O)c1ccccc1)N(C)C (stereo not given)	-3.0%	1.2%	-14.1%
C[C@@H]1NS(=O)(=O)[C@H]2C[C@@H]3C=C[C@]2(O3)[C@H]1OC(=O)c1ccc(C(C)(C)C)cc1	-20.6%	1.6%	7.2%
COC(=O)C1=C(c2ccc(OCc3ccccc3)cc2)C[C@@H]2CC[C@H]1N2C(=O)NCc1cccc(OC)c1	-6.0%	3.0%	4.5%
CN(C(=O)c1ccc(NC(=O)C2CCCN(C(=O)OC(C)(C)C)C2)cc1)C1CCC1 (stereo not given)	0.0%	11.2%	-8.3%
CO[C@H]1[C@@H]2C=CO[C@@H](O[C@H]3O[C@@H](CO)[C@H](O)[C@@H](O)[C@@H]3O)[C@@H]2[C@@]2(CO)O[C@@H]12	-19.9%	5.0%	1.0%
COc1cccc(NC(=O)CN(C)CC(=O)Nc2ccc3c(c2)CCC3)c1	12.8%	2.5%	-4.4%
CNc1ccc(C(=O)OCC(=O)NCc2ccc3c(c2)OCO3)cc1[N+](=O)[O-]	-10.7%	-2.4%	9.3%
CCN(CC(=O)Nc1ccc(OC)cc1)C(=O)C1CCN(C(=O)c2ccc(Cl)cc2)CC1	-24.1%	2.8%	-7.1%
C#CCOCCOCCOCCNc1nc(N2CCN(C(=O)[C@H](CCC(=O)O)n3cc([C@@H](N)[C@H](C)CC)nn3)CC2)nc(N2CCN(C(=O)[C@H](CCCCN)n3cc([C@@H](N)CC(N)=O)nn3)CC2)n1	-10.5%	1.3%	4.4%
O=C(NCc1ccccc1Cl)C1=CC=CN2CCS(=O)(=O)N=C12	-20.2%	3.5%	2.4%
C=CC[C@@H](CC(=O)N(CCO)Cc1ccccc1)C(=O)N[C@@H](COC(=O)[C@@H](CC=C)Cc1ccc(F)cc1)Cc1ccccc1	?	10.3%	-4.2%
O=C(NCCCn1ccnc1)C(=O)NCC1OCCCN1S(=O)(=O)c1ccc(F)cc1 (stereo not given)	-3.4%	-3.2%	-1.8%
O=C(CNS(=O)(=O)c1ccc2c(c1)OCCCO2)N1CCN(c2ccc(F)cc2)CC1	?	5.4%	6.5%
O=C(COC(=O)/C=C/c1ccccc1Cl)NC1CCCC1	18.7%	0.7%	-13.8%
C/C(=N\Nc1cc(N2CCOCC2)nc(C)n1)c1cccc([N+](=O)[O-])c1	?	-2.5%	6.3%
O=C1C=C(c2ccc(-c3ccccc3)c(F)c2)C[C@@H](c2ccc3c(c2)OCO3)C1	-7.4%	0.1%	12.1%
C[C@@]12C(=O)Nc3ccc(Br)cc3C(=O)N1[C@H]1c3cc(Br)ccc3OC[C@@H]1[C@@H]2c1ccccc1	-26.9%	5.7%	3.9%
CC(C)=CCC/C(C)=C/CNC(=O)C[C@H]1C[C@H](C(=O)N2CCCCC2)[C@@]2(CCc3ccccc3)c3[nH]c4ccc(Cl)cc4c3CCN2C1=O	-13.3%	18.8%	-9.8%
CCCCCCSc1ccc(-c2nc3ccccn3c2NCCCC)cc1	?	0.8%	-21.7%
CCC(C)Sc1ccc(-c2nc3cc(C)ccn3c2NC2CCCCC2)cc1 (stereo not given)	?	5.6%	?
CCc1cccc2c(C(=O)CSc3nnc(C4CC4)o3)c[nH]c12	-15.1%	0.0%	1.6%
CC(C)NC(=O)Nc1cccc2c1O[C@H](CN(C)C(=O)NC1CCCCC1)[C@@H](C)CN([C@H](C)CO)C2=O	-14.8%	-4.3%	8.6%
CC(=O)NS(=O)(=O)c1ccc(NC(=O)c2cccc(OCc3c(C)noc3C)c2)cc1	0.7%	1.4%	6.2%
CN(C(=O)CSc1ncnc2ccccc12)C1CCS(=O)(=O)C1 (stereo not given)	0.0%	-6.9%	6.3%
CCOC(=O)c1ccccc1NC(=S)N1CCC(C(N)=O)CC1	-0.4%	-1.4%	6.4%
O=C(Cn1cnc2c(NCc3ccccc3)ncnc21)NCCCN1CCCC1=O	-16.2%	7.7%	-2.2%
CN(c1ccc(F)cc1)S(=O)(=O)c1ccc(Cl)c(C(=O)OCC(=O)NC2CC2)c1	-16.7%	-0.4%	7.7%
CCOC(=O)C1=CN(Cc2ccco2)S(=O)(=O)N(CC)C1c1ccccc1 (stereo not given)	-1.3%	-27.7%	5.3%
COc1ccc(NC(=S)Nc2ccccc2)c(OC)c1	5.4%	0.3%	27.7%
Cc1ccc(S(=O)(=O)/N=C(/c2ccccc2)N(C)c2ccc(O)cc2)cc1	35.4%[activator]	1.0%	0.7%
COc1cccc(NC(=O)CN(C)C(=O)CCNS(=O)(=O)c2ccc(C)cc2)c1	-4.0%	-1.9%	0.9%
Cc1cc(C)n2nc(SCC(=O)N3CCN(c4ccc(F)cc4)CC3)nc2n1	-13.8%	8.1%	-11.1%
CCOc1[nH]n(-c2ccccc2)c(=O)c1C=NCC(=O)OC	4.5%	0.9%	2.3%
Cc1noc(C)c1C(=O)OC(C)C(=O)NC(C)c1ccc(Cl)cc1Cl (stereo not given)	-10.0%	-1.3%	1.9%
CC(=O)Nc1ccc(NC(=O)CN(C)S(=O)(=O)c2ccc3nc(C)sc3c2)cc1	4.7%	-0.1%	11.8%
CCN1C(=O)[C@@H]2[C@@H](c3ccc(-c4ccc(Cl)c(Cl)c4)c(OC)c3)N3CCCC[C@@]3(C(=O)OC)[C@@H]2C1=O	?	-10.4%	3.8%
CN(C)C(CNC(=O)CCNS(=O)(=O)c1ccccc1C(F)(F)F)c1ccccc1 (stereo not given)	-14.2%	-6.4%	-7.4%
C[C@H]1NC(=O)[C@@]2(C)[C@H](c3ccccc3)[C@H]3COc4ccccc4[C@@H]3N2C1=O	-10.9%	-4.5%	10.3%
C=CC[C@H](CC(=O)OC(C)(C)C)C(=O)OC[C@@H]1CCCN1C(=O)[C@@H](CC=C)CC(=O)NCCO	-18.0%	-5.2%	8.8%
COc1ccc(NC(=O)c2ccc(S(=O)(=O)N3CCCCC3)cc2)cc1OC	-11.6%	-6.9%	-3.1%
Nc1ccc(C(=O)N2CCN(S(=O)(=O)c3ccc4c(c3)OCCCO4)CC2)cc1[N+](=O)[O-]	?	-2.1%	1.7%
C[C@@H]1CCCCCCCCC(=O)OCCN(C(=O)OC(C)(C)C)[C@H](C)CCCCCCCCC(=O)OCCN(C(=O)OC(C)(C)C)[C@H](C)CCCCCCCCC(=O)OCCN1C(=O)OC(C)(C)C	-9.6%	0.0%	1.1%
COc1ccc(NC(=O)CNC(=O)c2sc3ccccc3c2Cl)c(OC)c1	26.8%	-5.5%	11.2%
O=C1c2cc(Br)ccc2N(Cc2ccc(Br)cc2)S(=O)(=O)C1c1cc(Cl)c(Cl)cc1[N+](=O)[O-] (stereo not given)	-5.8%	-2.7%	-6.9%
Cc1cc(C)c(NC(=O)CNC(=O)c2cc(C3CC3)nn2-c2ccccc2)c(C)c1	-6.8%	7.7%	-9.8%
O=C(COc1ccc(Cl)c(Cl)c1)NC1CCS(=O)(=O)C1 (stereo not given)	0.2%	3.7%	-23.9%
C[C@@H]1CN([C@@H](C)CO)C(=O)c2cccc(NS(=O)(=O)c3ccc(F)cc3)c2O[C@H]1CN(C)C(=O)NC1CCCCC1	-0.9%	-37.0%	-0.8%
O=c1c(Cl)c(NCC2CCCO2)cnn1C12CC3CC(CC(C3)C1)C2 (stereo not given)	-11.8%	2.6%	3.5%

Remaining list, next part.
molecule	2A StopGo	SARS PLpro yeast	RE007 growth inh
COc1ccc(C2=NOC(Cn3nc(-c4ccccc4C)cc3C(=O)O)C2)cc1 (stereo not given)	20.4%	-1.5%	17.9%
CCOc1ccccc1Nc1nnc(SCC(=O)NC2CCS(=O)(=O)C2)s1 (stereo not given)	-9.9%	0.9%	-2.1%
CC1Cc2ccccc2N1C(=O)COC(=O)c1ccc(Cl)c(S(=O)(=O)N2CCOCC2)c1 (stereo not given)	?	3.4%	4.5%
Cc1ccc(NC(=O)COC(=O)CN2CCCCCC2=O)cc1C	-15.3%	-7.1%	10.7%
O=C(O)c1ccc(/C=N/NC(=S)NCc2ccccc2)cc1	-3.5%	-3.8%	10.4%
COc1ccc(S(=O)(=O)Nc2ccc3c(c2)C(=O)N([C@H](C)CO)C[C@H](C)[C@@H](CN(C)S(=O)(=O)c2cccs2)O3)cc1	-33.4%	2.6%	-0.3%
O=C(C1=COCCO1)N(Cc1nnc(-c2ccccc2Cl)o1)C1CC1	9.2%	-1.6%	32.6%
COc1ccc(S(=O)(=O)N2CCCCC2)cc1NC(=O)c1ccc(N2CCCC2=O)cc1	10.6%	-3.3%	-7.0%
Cc1ccccc1C(=O)NC(=S)Nc1ccc2[nH]c(=O)[nH]c2c1	-15.6%	0.9%	29.7%
Cc1ccc(F)cc1NC(=O)CSCc1c(C)noc1C	-11.4%	1.4%	-0.9%
C#CCOCCOCCOCCNc1nc(N2CCN(C(=O)[C@H](CO)n3cc([C@@H](N)C(C)C)nn3)CC2)nc(N2CCN(C(=O)[C@H](CCC(=O)O)n3cc([C@@H](N)CCCCN)nn3)CC2)n1	-19.1%	-2.0%	14.2%
COCC(C)NC(=O)/C(=C/c1ccccc1)c1ccccc1 (stereo not given)	-7.1%	-0.5%	18.5%
COc1cc2ccccc2cc1C(=O)OCc1nc2ccsc2c(=O)[nH]1	-8.6%	-5.7%	11.8%
CCn1c(SCC(=O)N2CCCC2=O)nnc1-c1cccs1	0.0%	1.9%	5.6%
COC(=O)C1SCC2C(=O)N(Cc3ccc(F)cc3)CC(=O)N21 (stereo not given)	-2.1%	-1.3%	12.0%
COc1ccccc1NS(=O)(=O)c1ccc2oc(SCC(=O)N3CCNC3=O)nc2c1	-26.9%	-1.3%	3.1%
N#CC1(NC(=O)COC(=O)CNC(=O)c2sc3ccccc3c2Cl)CCCCC1	8.9%	4.5%	10.7%
COc1ccc(C(=O)NCCN2CCOCC2)cc1S(=O)(=O)Nc1ccc(C)cc1	29.9%	-1.1%	-6.1%
CCC(C)(C)C1CCc2[nH]nc(C(=O)NCc3ccc(OC)cc3)c2C1 (stereo not given)	0.0%	-3.8%	4.1%
Cc1ccc(C(=O)Nc2ccccc2N2CCCCC2)cc1[N+](=O)[O-]	?	0.9%	0.0%
CCc1ccc(C(=O)N2CCN(S(=O)(=O)c3sc(C(=O)O)c(C)c3C(=O)O)CC2)cc1	0.3%	-7.5%	-0.7%
CC1CC(C)CN(S(=O)(=O)c2ccc(NC(=O)CCN3C(=O)C4CC=CCC4C3=O)cc2)C1 (stereo not given)	-8.8%	-3.6%	-6.9%
C[C@@]12C(=O)N(CCc3c[nH]c4ccccc34)CC(=O)N1[C@H]1c3ccccc3OC[C@@H]1[C@@H]2c1ccccc1	-24.3%	?	0.0%
NC(=O)c1ccc(-c2c(-c3ccccc3)sc3ccccc23)cc1	-20.5%	-0.6%	-5.2%
CCCNC(=O)C1CC(c2ccccc2C(F)(F)F)=NO1 (stereo not given)	21.2%	2.4%	4.3%
O=C(NCC1CC1)c1ccc2c(c1)S(=O)(=O)c1cc(Cl)ccc1C2=O	11.4%	1.8%	-5.9%

High-throughput results as filed in PubChem.
